Marburg entry inh = Marburg virus entry inhibition | 300,000 tested, 1.8% active | AID 540276 | Potency, µM (series often up to 37.8 µM), for the others: at the highest dose activity change, negative = inhibition, actives largely listed as inhibitors | Marburg virus pseudotyped entry inhibition, cell reporter; control for the full effect not named in the record; about a third of the inactives were read at about 46 µM; active = well fitted inhibition curve with a large enough effect; inconclusive = small, poorly fitted or top-dose-only effect, or effect the other way; inactive = flat fitted curve, though single readings scatter; tested in HEK293 cells; about a fifth of its hits are not listed in these tables; note: % is set by controls: 0 for no effect and ±100 for the full control effect; luciferase read-out
Lassa entry inh = inhibitors of Lassa virus binding or cell entry. AID 540256. Lassa virus pseudotype entry inhibition, cell reporter; control for the full effect not named in the record. 300,000 tested, 1.2% active. Potency, µM (series often up to 37.9 µM), for inactives: at the highest dose activity change, negative = inhibition, actives largely listed as inhibitors; active means well fitted inhibition curve with a large enough effect; inconclusive means small, poorly fitted or top-dose-only effect, or effect the other way; inactive means flat fitted curve, though single readings scatter; tested in HEK293 cells; note: % is set by controls: 0 for no effect and ±100 for the full control effect; nearly all actives have a fitted effect of over 50% in size; luciferase read-out
SARS PLP yeast = SARS-CoV PLP inhibition in yeast; S. cerevisiae expressing SARS-CoV PLpro, growth rescue; control for the full effect not named in the record; Potency, µM (doses to about 32.9 µM), without a hit: at the highest dose activity, positive = growth rescue; 330,000 tested, 0.19% active; AID 485353; note: 0% is about no effect; nearly all actives have a fitted effect of over 55% in size; growth read by luminescence after 48 h
Cruzain noTriton = blocks cruzain activity in detergent-free assay; Potency, µM, inactives show max response, negative = inhibition, actives largely listed as inhibitors; 200,000 tested, 2.3% active; purified cruzain, Z-FR-AMC fluorescence, no detergent; active = well fitted curve in the direction sought with a large enough effect; inconclusive = small, poorly fitted or top-dose-only effect, or another doubt; inactive = no such curve, though single readings can be large; an effect the other way counts as inactive or inconclusive;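 note: plate controls were enzyme without inhibitor for no effect and buffer without enzyme for full effect; nearly all actives have a fitted effect of over 40% in size; top concentration of the series not given in the record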
Target sequence (P25779 123-467 limits assumed): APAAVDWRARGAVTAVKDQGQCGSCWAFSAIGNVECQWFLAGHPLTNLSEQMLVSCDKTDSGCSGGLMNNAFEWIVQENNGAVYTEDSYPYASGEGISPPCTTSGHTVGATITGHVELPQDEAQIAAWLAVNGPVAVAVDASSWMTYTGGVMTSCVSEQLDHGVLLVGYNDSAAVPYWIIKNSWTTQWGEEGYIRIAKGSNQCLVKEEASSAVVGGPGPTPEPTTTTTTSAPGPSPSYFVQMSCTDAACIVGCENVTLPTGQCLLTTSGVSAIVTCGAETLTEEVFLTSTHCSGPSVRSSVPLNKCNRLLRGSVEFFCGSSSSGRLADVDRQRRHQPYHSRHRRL
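Detergent-free condition (0.00005% Triton X-100) in acetate buffer pH 5.5 with DTT. 1.5 nM enzyme and compound were pre-mixed 15 min, then 2 uM Z-FR-AMC substrate added; reaction progress from fluorescence change between first and third reads (60 s).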
RE007 growth inh = less growth of the S. pombe RE007 Vpr strain; AID 651644; Potency, µM (series often up to 92.2 µM), for inactives: at the highest dose activity change, negative = less growth; 360,000 tested, 0.21% active; S. pombe RE007 Vpr strain, BacTiter-Glo ATP luminescence, 24 h; control for the full effect not named in the record; active = well fitted falling curve with a large enough effect; inconclusive = small, poorly fitted or top-dose-only effect; inactive = no such curve, though single readings can be large or run the other way;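 note: % is set by controls: 0 for no effect and ±100 for the full control effect; nearly all actives have a fitted effect of over 50% in size; the assay follows cell death caused by Vpr and the record does not say whether a fall means rescue or toxicity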
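Fission yeast RE007 carrying one integrated HIV-1 vpr copy, seeded at OD 0.01 in PMG+AL medium with 23 nL pinned compound. Grown 24 h at 30 degrees; viability read by BacTiter-Glo luminescence after 5 min.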
StopGo reporter = FMDV 2A StopGo reporter, luciferase signal; 410,000 tested, 1.2% active; AID 1159524; human cells with a luciferase reporter of 2A StopGo recoding; control for the full effect not named in the record; Potency, µM (highest dose often 57.9 µM), inactives show at the top dose signal change, negative = less light; active = well fitted falling curve with a large enough effect; inconclusive = small, poorly fitted or top-dose-only effect; inactive = no such curve, though single readings can be large or run the other way; tested in HEK293T cells; note: % is set by controls: 0 for no effect and ±100 for the full control effect; nearly all actives have a fitted effect of over 45% in size; luciferase light after 4 h
NS1 inh = inhibitors of influenza NS1 protein function | Potency, µM (top dose mostly 46.1 µM), inactives show at the highest dose activity, positive = more growth | 270,000 tested, 0.4% active | AID 2326 | S. cerevisiae slowed by influenza A NS1, growth recovery by OD600; note: actives are rising curves; nearly all actives have a fitted effect of over 50% in size
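A cell-based growth assay was used: compounds that relieve NS1-induced slow growth of budding yeast raise OD600. Assay medium was yeast nitrogen base with ammonium sulphate and -URA supplement, pH 6.0, with 2% galactose.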
Cruzain inh Det = blocks cruzain activity in presence of Triton detergent | P25779 | purified cruzain, Z-FR-AMC fluorescence, 0.01% Triton | Potency, µM, for the others: max response, negative = inhibition, hits mostly inhibitors | 200,000 tested, 0.43% active | AID 1478; active = well fitted curve in the direction sought with a large enough effect; inconclusive = small, poorly fitted or top-dose-only effect, or another doubt; inactive = no such curve, though single readings can be large; an effect the other way counts as inactive or inconclusive;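 note: plate controls were neutral wells for no effect and buffer without enzyme for full effect; nearly all actives have a fitted effect of over 40% in size; top concentration of the series not given in the record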
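Purified cruzain (1.5 nM final) was preincubated with compounds for 15 min at room temperature in 100 mM sodium acetate pH 5.5, 5 mM DTT, 0.01% Triton X-100. Reaction started with 2 uM Z-FR-AMC; AMC fluorescence change over 60 s gave activity.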
Active calls of the source: *; [ ] = another dose, or the depositor's remark. Unless noted, calls come from the whole dose curve; as a rule, active means well fitted rising curve with a large enough effect; inconclusive means small, poorly fitted or top-dose-only effect; inactive means no such curve, though single readings can be large or run the other way. Potency is the fitted concentration of half-maximal effect. The order is random. About 4.6% of those tested had a hit in this group.

`C/C=C(\C)C(=O)N1CC2(CC(c3cccc(NC(=O)CCCCC)c3)=NO2)C[C@@H]1C(N)=O` (stereo not given in full) gave SARS PLP yeast 2%, RE007 growth inh -1%, StopGo reporter -10% and NS1 inh -2%.
`CCCN1CCCc2cc(CN(CCCN3CCOCC3)C(=O)Nc3ccc(CC)cc3)ccc21` gave Lassa entry inh inconclusive, Cruzain noTriton 4%, StopGo reporter -7% and Cruzain inh Det 3.1%.
COC(=O)c1cc2c(ccn2-c2ccc(F)cc2)n1Cc1ccc(OC(C)=O)cc1 was read as Marburg entry inh -1%, Lassa entry inh inconclusive, SARS PLP yeast 22%, Cruzain noTriton -5%, RE007 growth inh -4%, StopGo reporter 16%, NS1 inh inconclusive and Cruzain inh Det -3.0%.
For Cc1ccc(C2OC34CCCCCC3C(C#N)(C(=N)O4)C2(C#N)C#N)cc1 (stereo not given) the results were Marburg entry inh 1%, Lassa entry inh 6%, SARS PLP yeast 12%, Cruzain noTriton -9%, RE007 growth inh 4%, StopGo reporter -7%, NS1 inh 13% and Cruzain inh Det -5.3%.
Screening CCCC(C(=O)NCc1ccco1)N(C(=O)CNS(=O)(=O)c1ccc(Cl)cc1)C1CCCC1 (stereo not given) returned Marburg entry inh -27%, Lassa entry inh inconclusive, SARS PLP yeast 0%, Cruzain noTriton 18%, RE007 growth inh 1%, StopGo reporter 3%, NS1 inh -14% and Cruzain inh Det -2.8%.
O=C(C1CCCN(S(=O)(=O)c2ccc(Br)s2)C1)N1CCN(c2ccccc2)CC1 (stereo not given) was read as Marburg entry inh inconclusive, Lassa entry inh inconclusive, SARS PLP yeast -2%, Cruzain noTriton -15%, RE007 growth inh 1%, StopGo reporter inconclusive, NS1 inh 1% and Cruzain inh Det -2.6%.
For O=C(NCc1c[nH]c2ccccc12)c1ccccc1 the results were Marburg entry inh 0%[46.1 µM], Lassa entry inh 18%[46.1 µM], RE007 growth inh -9% and StopGo reporter 0%.
`COC(=O)c1c(C)oc2c1cc(NS(=O)(=O)c1ccc(C(=O)O)cc1)c1ccccc12` gave SARS PLP yeast 0%, RE007 growth inh -2%, StopGo reporter -16% and NS1 inh -19%.
CC1(C)CC(=O)C(C(C2=C(O)CC(C)(C)CC2=O)c2ccc(Br)s2)C(=O)C1 (stereo not given) was read as Marburg entry inh inconclusive, Lassa entry inh 13µM*, SARS PLP yeast -17%, Cruzain noTriton -2%, RE007 growth inh inconclusive, StopGo reporter 5.6µM*, NS1 inh 11% and Cruzain inh Det -1.4%.
`Cc1cnc(C(=O)OCC(=O)Nc2ccc(C)c(S(=O)(=O)N3CCCCC3)c2)cn1` gave Marburg entry inh -11%[46.1 µM], Lassa entry inh 13%[46.1 µM], SARS PLP yeast 4%, Cruzain noTriton -5%, RE007 growth inh -2%, StopGo reporter -2%, NS1 inh -5% and Cruzain inh Det -3.2%.
For CCOC(=O)CC(=O)CSc1nc(CC)c(C)cc1C#N the results were Marburg entry inh inconclusive, Lassa entry inh 17%, SARS PLP yeast -2%, RE007 growth inh 8%, StopGo reporter 11% and NS1 inh 14%.
For COC(=O)c1ccc(NC(=O)c2cccc(N3C(=O)CCC3=O)c2)cc1 the results were Marburg entry inh -16%[46.1 µM], Lassa entry inh 2%, SARS PLP yeast -6%, RE007 growth inh 7% and StopGo reporter -13%.
For O=C(NCC(=O)N(c1cccc(F)c1)C(C(=O)NC1CCCC1)c1ccncc1)c1cccs1 (stereo not given) the results were Marburg entry inh -37%[46.1 µM], Lassa entry inh inconclusive, SARS PLP yeast 2%, RE007 growth inh -4%, StopGo reporter 22% and NS1 inh -4%.
Screening COc1ccc(-c2nnc(C(C)Nc3cccc(C(=O)NC4CC4)c3)o2)cc1 (stereo not given) returned Marburg entry inh -6%, Lassa entry inh -5%, SARS PLP yeast 2%, RE007 growth inh -12% and StopGo reporter 4%.
Screening O=C(Cn1nnc(-c2ccccc2)n1)c1ccccc1 returned Marburg entry inh 23%, Lassa entry inh inconclusive, SARS PLP yeast 18%, Cruzain noTriton 1%, RE007 growth inh -1%, NS1 inh -6% and Cruzain inh Det -9.4%.
Screening Cc1cc(=O)nc2c3ccccc3n(CC(=O)NCCC3=CCCCC3)n12 returned Marburg entry inh 11%[46.1 µM], Lassa entry inh 17%[46.1 µM], SARS PLP yeast -1%, RE007 growth inh -4%, StopGo reporter -13% and NS1 inh -27%.
Screening CCn1c(NC(=O)c2cccs2)nc2ccccc21 returned Marburg entry inh 16%, Lassa entry inh inconclusive, SARS PLP yeast -10%, Cruzain noTriton -5%, RE007 growth inh -17%, StopGo reporter 31%[activator], NS1 inh -78% and Cruzain inh Det -10%.
CCc1nc(-c2ccc(OC)c(OC)c2)cc2cc(OC)c(OC)cc12 was read as Marburg entry inh -3%, Lassa entry inh 0%, SARS PLP yeast 27%, Cruzain noTriton -2%, RE007 growth inh 6%, StopGo reporter -22%, NS1 inh -9% and Cruzain inh Det -6.3%.
For COc1cc2c(cc1OC)C(c1cc3cc4c(cc3[nH]c1=O)OCO4)N(C(=O)C(C)C)CC2 (stereo not given) the results were Marburg entry inh -27%, Lassa entry inh inconclusive, SARS PLP yeast 6%, Cruzain noTriton 16%, RE007 growth inh -7%, NS1 inh 26% and Cruzain inh Det -4.4%.
For Cc1ccccc1NC(=O)CSc1nc(N2CCCCC2)nc(N2CCCCC2)n1 the results were Marburg entry inh -1%, Lassa entry inh -3%, SARS PLP yeast -4%, Cruzain noTriton -1%, RE007 growth inh 14%, StopGo reporter -17%, NS1 inh -6% and Cruzain inh Det -1.4%.
`O=C(c1ccc2c(c1)N(Cc1c(F)cccc1Cl)C(=O)c1ccccc1S2)N1CCCC1` gave Marburg entry inh inconclusive, Lassa entry inh inconclusive, Cruzain noTriton 7%, StopGo reporter -13% and Cruzain inh Det 0.7%.
CN(C)CCNC(=O)Cc1ccc(NC(=O)N2CCCCc3ccccc32)cc1 was read as Lassa entry inh -4%[46.1 µM], Cruzain noTriton -9%, StopGo reporter -22% and Cruzain inh Det -1.7%.
COc1cc(NC(=O)c2cc3sccc3n2C)cc(OC)c1 was read as Marburg entry inh inconclusive, Lassa entry inh inconclusive, SARS PLP yeast -8%, Cruzain noTriton inconclusive, RE007 growth inh -7%, StopGo reporter 40%[activator], NS1 inh -49% and Cruzain inh Det -4.3%.
CCc1ccc(NC(=O)CCNS(=O)(=O)c2ccc3c(c2)oc(=O)n3C)cc1 was read as Marburg entry inh 3%[46.1 µM], Lassa entry inh -6%[46.1 µM], Cruzain noTriton 16%, StopGo reporter -11% and Cruzain inh Det -1.2%.
Screening O=C(Nc1ccccc1OC(F)F)c1ccc(-n2cncn2)c([N+](=O)[O-])c1 returned Marburg entry inh -19%, Lassa entry inh 3%, SARS PLP yeast -1%, RE007 growth inh -9% and StopGo reporter -9%.
N#Cc1c(NC(=O)c2ccccc2)sc2c1CCC2 was read as Marburg entry inh inconclusive, Lassa entry inh inconclusive, SARS PLP yeast 7%, Cruzain noTriton 1%, RE007 growth inh -6%, StopGo reporter 0%, NS1 inh 2% and Cruzain inh Det -4.1%.
Screening CCC(C)[C@H](N)c1nnc(SCc2cccc(F)c2)o1 (stereo not given in full) returned Marburg entry inh -8%, Lassa entry inh 5%, SARS PLP yeast -2%, Cruzain noTriton 12%, RE007 growth inh -4%, StopGo reporter 8%, NS1 inh 4% and Cruzain inh Det 3.3%.
For COc1cc(C(=O)COC(=O)C2CC2(Cl)Cl)cc(OC)c1OC (stereo not given) the results were Marburg entry inh inconclusive, Lassa entry inh 15%, SARS PLP yeast 0%, RE007 growth inh -3% and StopGo reporter -7%.
`O=C(NCC(c1ccco1)N1CCc2ccccc21)C(=O)Nc1ccccc1F` (stereo not given) gave Marburg entry inh inconclusive, Lassa entry inh inconclusive, SARS PLP yeast -25%, RE007 growth inh 7% and StopGo reporter -1%.
For Cc1nn(-c2ccc(N3CCCC3)nn2)c(C)c1CCC(=O)Nc1ccc(F)c(Cl)c1 the results were Lassa entry inh 28%[46.1 µM], Cruzain noTriton 19%, StopGo reporter 14% and Cruzain inh Det -7.9%.
For Cc1ccc(C(=O)NCC(c2ccc3c(c2)OCO3)N2CCN(C)CC2)cc1C (stereo not given) the results were Lassa entry inh 10%[46.1 µM], Cruzain noTriton -17%, StopGo reporter -10% and Cruzain inh Det -0.1%.
Screening OC(CCNCCc1c[nH]c2ccccc12)C(F)(F)F (stereo not given) returned Marburg entry inh -25%[46.1 µM], Lassa entry inh inconclusive, SARS PLP yeast 0%, RE007 growth inh -12% and StopGo reporter 0%.
Screening O=C(CN1CCN(S(=O)(=O)c2ccc(Br)cc2)CC1)Nc1ccc(F)cc1 returned Marburg entry inh inconclusive, Lassa entry inh inconclusive, SARS PLP yeast -7%, Cruzain noTriton 8%, RE007 growth inh 29%, StopGo reporter inconclusive, NS1 inh -3% and Cruzain inh Det -12%.
Screening COc1cc(C)ccc1OCc1cc(C(=O)N2CCCCCC2)no1 returned SARS PLP yeast -8%, RE007 growth inh -13%, StopGo reporter 5% and NS1 inh -33%.
`COc1cc(CNC(=O)CSCc2nc3cccnc3n2C2CCCCC2)cc(OC)c1OC` gave Lassa entry inh -24%[46.1 µM], Cruzain noTriton 4%, StopGo reporter -16% and Cruzain inh Det -1.3%.
Cc1nn(Cc2ccccc2)c(C)c1NC(=O)Cn1nc([N+](=O)[O-])c(Cl)c1C was read as Marburg entry inh 11%, Lassa entry inh -8%, SARS PLP yeast 1%, Cruzain noTriton 1%, RE007 growth inh 8%, NS1 inh -2% and Cruzain inh Det -2.8%.
CCc1nc2cc(Cl)c(Cl)cc2nc1CC was read as Marburg entry inh 19%[46.1 µM], Lassa entry inh -9%[46.1 µM], SARS PLP yeast -1%, RE007 growth inh -13%, StopGo reporter -4% and NS1 inh -2%.
`COc1ccccc1CNC(=O)CSc1nc2nc(C)cc(C)n2n1` gave Marburg entry inh 11%, Lassa entry inh 0%, SARS PLP yeast 5%, Cruzain noTriton -12%, RE007 growth inh 11%, StopGo reporter 5%, NS1 inh 2% and Cruzain inh Det 1.2%.
